PK Bst: pyruvate kinase (B. stearothermophilus) modulation | partly purified Bacillus stearothermophilus pyruvate kinase, luminescence ATP production; ribose 5-phosphate activator present at AC10 | Potency, µM | hit rate 1.2% among 51,000; in the data active means potency below about 11 µM; inconclusive means mostly about 12 µM to 25 µM; inactive means weaker than that;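 the screen sought inhibitors and activators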;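 also: potency is read from the fitted curve at half-maximal effect; scaled between full activation by ribose 5 phosphate and full inhibition by luteolin; about four in five hits inhibit and the cells do not say which; series up to 57 µM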
YjeE inh: inhibitors of E. coli YjeE (TsaE); hit rate 0.05% among 71,000; P0AF67; AID 605; Potency, µM; purified YjeE, fluorescence polarisation of a bound ADP probe; active = well fitted falling curve; inconclusive = weaker or top-dose-only fall, or a rising curve; inactive = flat or poorly fitted curve;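 also: top concentration of the series not given in the record; excess ADP was the control for the full effect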
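Purified YjeE (10 uM) with BODIPY Texas Red-labeled ADP probe (2 uM); compounds pin-transferred, 15 min at room temperature. Binding inhibition read as decreased fluorescence polarization; ADP titration as control.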
An asterisk follows results filed as active; i = inactive; ? = inconclusive; . = no result given.

SMILES | PK Bst | YjeE inh
CCn1c(-c2ccc(N(C)C)cc2)nc2ccccc21 | >57 | i
COc1cc(OC)cc(C(=O)NCC(=O)N2CCCCC2)c1 | >57 | i
Cc1cc(C(=O)CSCCCn2c(=O)[nH]c3ccccc32)c(C)n1C | >57 | i
O=C(C1CC1)N1CCc2cc(S(=O)(=O)NC3CCN(Cc4ccccc4)CC3)ccc21 | >57 | i
COc1ccc2c(c1)c1ncn(Cc3ccco3)c(=O)c1n2C | . | i
CCCCn1nnnc1NCc1cc(OC)c(OC)c(OC)c1 | >57 | i
Cn1c(=O)cc(OCC(=O)NCCCN2CCN(c3cccc(Cl)c3)CC2)c2ccccc21 | . | i
O=c1cc(-c2ccncc2)oc2ccccc12 | . | i
O=C1C(Cl)=C(NC2CCc3ccccc32)C(=O)c2ncccc21 (centres undefined) | . | i
CCOC(=O)c1c(NS(C)(=O)=O)sc2c1CCC(C)C2 (centres undefined) | . | i
CCCOC(=O)c1cccc(NC(=O)c2cccnc2)c1 | . | i
CCn1nc(CC(=O)Nc2nnc(CC(=O)N3CCCC3)s2)c2ccccc2c1=O | >57 | i
CC1CCCCC1NC(=O)CSc1nc2ccccc2c(=O)n1Cc1ccco1 (centres undefined) | >57 | i
COc1ccc(-n2c(SCC(=O)NCc3cccs3)nnc2-c2ccoc2C)cc1 | >57 | i
COc1ccccc1CNC(=O)CCCn1c(=O)c2ccccc2n(CC(=O)NC2CCCC2)c1=O | >57 | i
Cc1ccc(S(=O)(=O)Cc2csc(N)n2)cc1 | >57 | i
O=C(C1CCCCC1)N1CCC(c2nc3c(nnn3Cc3c(F)cccc3Cl)c(=O)[nH]2)CC1 | >57 | i
COc1ccc(-c2nc(CSCC(=O)N3CCc4ccccc43)c(C)o2)cc1OC | >57 | i
O=C(NCC(=O)N(CC1CCCO1)C(C(=O)NC1CCCCC1)c1ccc(F)cc1)c1ccco1 (centres undefined) | >57 | i
COc1ccc(C(=O)NCCCCCC(=O)O)cc1OC | >11.4 | .
CCc1ccc(NS(=O)(=O)c2cc(OC)ccc2OC)cc1 | . | i
O=S(NCc1ccco1)C12CC3CC(CC(C3)C1)C2 (centres undefined) | >57 | i
CCOC(=O)c1[nH]c2c(c1C)C(=O)CC(c1ccc(F)cc1)C2 (centres undefined) | . | i
Cc1nn(-c2ccccc2)c2[nH]c(=O)c(CNCCN3CCOCC3)cc12 | >57 | i
c1ccc2c(NC3CCNCC3)nc(-c3ccoc3)nc2c1 | . | i
CCOc1cccc2cc(-c3cn4cc(C)ccc4n3)c(=O)oc12 | 1.23* | i
O=C1c2cccnc2C(=O)N1Cc1ccco1 | >57 | i
Cc1c(C)n(C)c2ccc(C(=O)NCc3cccs3)cc12 | . | ?
CC(C)(CNC(=O)c1cc2ccccc2o1)N1CCOCC1 | >57 | i
COCCN1Cc2cccc(C(=O)Nc3ccc4c(c3)OCCO4)c2C1=O | . | i
Nc1nnc2c(n1)CCCC2 | >57 | i
CCOC(=O)c1ccc(NC(=O)CSc2nnc(Cc3cccs3)n2C)cc1 | >57 | i
COCC(=O)N(CCc1ccc(OC)c(OC)c1)Cc1nc2ccccc2c(=O)[nH]1 | >57 | i
Cc1ccc(Cn2c(=O)cc(C(=O)O)c3ccccc32)cc1 | . | i
CC(C)c1ccc(NC(=O)C(c2ccc3c(c2)OCO3)N2CCC3(CC2)OCCO3)cc1 (centres undefined) | >57 | i
COc1ccc(C)cc1NC(=O)C1CCCN(S(=O)(=O)c2c(C)noc2/C=C/N(C)C)C1 (centres undefined) | . | i
COc1ccc(CSC2=NCCN2)cc1Cl | >25.6 | .
CCOC(=O)c1sc(NC(=O)C2CC=CCC2C(=O)O)nc1C (centres undefined) | . | i
COC(=O)c1c(-c2ccco2)csc1NC(=O)C1CC=CCC1C(=O)O (centres undefined) | >57 | i
CN(C)CCNc1nc2c(c(=O)[nH]c(=O)n2C)n1CC(O)COc1ccc(Cl)cc1 (centres undefined) | >57 | i
CCOC(=O)C1CCN(S(=O)(=O)c2ccc(C(=O)OC)cc2)CC1 | >57 | i
COc1ccc(Cl)c(NC(=O)Nc2c(C)n(-c3ccccc3)c(=O)n2C)c1 | >57 | i
COc1ccc(-c2nc3cnc(N(C)C)nc3n(Cc3cccs3)c2=O)cc1 | . | i
CCCC(=O)Nc1cccc(-c2nc3cc(C)c(C)cc3o2)c1 | . | i
COc1ccc(NC(=O)NCc2ccccn2)cc1OC | >57 | i

Shown as labelled records: 2 of the compounds above.
Cn1c(=O)cc(OCC(=O)NCCCN2CCN(c3cccc(Cl)c3)CC2)c2ccccc21
  PK Bst: .
  YjeE inh: i

O=c1cc(-c2ccncc2)oc2ccccc12
  PK Bst: .
  YjeE inh: i

More records:
SMILES | PK Bst | YjeE inh
COc1ccccc1N1CCN(C(=O)c2ccc(S(=O)(=O)N3CCCCC3)cc2)CC1 | >57 | i
Cc1ccc(-c2nnc3sc(-c4ccc5c(c4)OCCO5)nn23)cc1 | >57 | i
Cn1c2ccc(Cl)cc2c2nc3ccccc3nc21 | . | i
O=C1NC2=C(C(=O)CCC2)C(c2ccc3ncccc3c2)N1 (centres undefined) | >57 | i
COc1ccc(CN(Cc2cccnc2)S(=O)(=O)c2ccc(-n3cnnn3)c(C)c2)cc1OC | >57 | i
COc1ccccc1C(=O)N1CCN(C2CCN(Cc3ccccc3)CC2)CC1 | >57 | i
O=C1c2ccccc2C(Nc2ccc3c(c2)OCCO3)N1Cc1ccccc1 (centres undefined) | . | i
Cc1ccc(C)c(OCC(=O)Nc2nonc2NC(=O)COc2cc(C)ccc2C)c1 | >57 | i
Cc1ccccc1Nc1nc(N)nc(CSc2nnnn2-c2ccccc2)n1 | >57 | i
Cc1ccc2nc(N3CCN(Cc4ccc(F)cc4)C3=O)c(C)cc2c1 | >57 | i
CCOC(=O)C1C2C=CC3(CN(c4ccc(Cl)c(F)c4)C(=O)C13)O2 (centres undefined) | . | i
CCC(CC)C(=O)NCCc1cc2c(OC)ccc(OC)c2[nH]c1=O | ? | i
COC(=O)c1[nH]c2ccccc2c1NC(=O)CN1CCN(C(=O)c2ccco2)CC1 | >57 | i
Cc1ccc(O)c(NC(=O)C2CC(c3c(F)cccc3Cl)=NO2)c1 (centres undefined) | i | i
CCOC(=O)c1cnc(=O)[nH]c1C | >57 | i
CC(C)CCn1c(=O)c2ccccc2n2c(CN3C(=O)NC4(CCC(C)CC4)C3=O)nnc12 (centres undefined) | >57 | i
O=c1c2[nH]c3ccccc3c2ncn1CCCn1ccnc1 | >57 | i
CCOc1ccc(/C(=N\O)C(C)NO)cc1 (centres undefined) | . | i
Cc1csc2nc(CSc3nc4ccccc4o3)cn12 | >25.6 | .
CCOc1ccc(NS(=O)(=O)c2ccc3[nH]cc(C(=O)NCC4CCCO4)c(=O)c3c2)cc1 (centres undefined) | >57 | i
CC(=O)c1c(C)[nH]c(C(=O)N2c3ccccc3CC2C)c1C (centres undefined) | . | i
COCC(=O)NC(c1ccccc1)c1ccccc1 | >57 | i
Cc1nc2c(C(=O)NCc3ccccc3)c[nH]n2c(=O)c1Cl | . | i
N=C(N)SCCc1cnc[nH]1 | . | i
CN1CCN(c2ncc3nc(-c4cccc(C#N)c4)c(=O)n(CCc4ccccc4)c3n2)CC1 | . | i
COc1ccc(NC(=O)CCNS(=O)(=O)c2ccc3c(c2)c(=O)n(C)c(=O)n3C)cc1 | >57 | i
CCSc1nc(N)c(C#N)c(-c2ccccc2Cl)c1C#N | >25.6 | .
COc1ccc(C2(O)CCN(Cc3nnnn3Cc3ccc(C)cc3)CC2)cc1 | >57 | i
CC(C(=O)N1CCCCC1)N1C(=O)c2ccccc2C1=O (centres undefined) | >25.6 | .
CC1(C)CC(C)(O)P(=O)(c2ccccc2)O1 (centres undefined) | . | i
CC(C)C[C@H](NC(=O)NC(C)C)C(=O)O | >57 | i
CC1Cc2ccccc2N1C(=O)c1cnsn1 (centres undefined) | >57 | i
c1cc2c3c(cccc3c1)C(N1CCCCC1)=N2 | . | i
Cc1cc2nc(-c3cccnc3SCC(=O)NCc3ccco3)[nH]c2cc1C | 3.87* | i
COc1ccc(CCNC(=O)C2CCN(S(=O)(=O)c3cc(OC)ccc3OC)CC2)cc1 | >57 | i
CCOc1ccc(Nc2cc(C)nc3nc(C)nn23)cc1 | . | i
O=C(CN1CCC(n2nnc3cc(C(F)(F)F)ccc32)CC1)NCc1cccs1 | >57 | i
CCOC(=O)c1cc(NC(=O)N2CCCc3ccccc32)c(C)nc1C | i | i
CC(C)Oc1c(Cl)cc(CNC(C)(C)CO)cc1Cl | >57 | i
O=C(NC1CCCCCC1)C1CCN(C(=O)Cc2ccccc2)CC1 | . | i
COc1ccc(-c2csc(N(CC3CCCO3)C(=O)c3cccs3)n2)cc1 (centres undefined) | >57 | i
Cc1nn(C)c(C)c1S(=O)(=O)N1CCCC(C(=O)NCC2COc3ccccc3O2)C1 (centres undefined) | . | i
CCc1cccc(NC(=O)c2ccc(NS(=O)(=O)c3c(C)noc3C)cc2)c1 | >57 | i
C=CCNC(=O)CCCCCNS(=O)(=O)c1ccc(OC)cc1 | >57 | i
CCC1(C)Cc2c(C#N)c(N)n(N)c(=S)c2CO1 (centres undefined) | >57 | i
COc1ccc2c(c1)c(C(=O)OCCN(C)C)c(C)n2C | >57 | i
N#CCSc1nnc2sc3ccccc3n12 | . | i
Cc1cc(C)n(C(=O)CN2C(=O)CCC2=O)n1 | >25.6 | .
CC(C)COC(=O)NCCOC(=O)Nc1cccc(Cl)c1 | >57 | i
O=C(OCC(=O)N1c2ccccc2Sc2ccccc21)C1CC(=O)N(Cc2ccco2)C1 (centres undefined) | >57 | i
CCN(CC)C(=O)C1CC(c2ccc(OC)cc2)=NO1 (centres undefined) | >57 | i
COc1ccc(-c2nc3nc(C)cc(C)n3n2)cc1 | . | i
Cc1cccnc1NCC(O)COc1ccccc1 (centres undefined) | >57 | i
CCOC(=O)C1C(=O)NC(N2CCCCC2)=NC1c1ccco1 (centres undefined) | >57 | i
COc1cc(OC)cc(C(=O)Nn2c(C)nc3ccccc3c2=O)c1 | >57 | i
CCCCn1c(=O)c2ccccc2c2ccccc2c1=O | >57 | i
Cc1c2c([n+]3n1CCC3)CC(C)(C)CC2=O | >25.6 | .
CCOC(=O)COc1ccc(S(=O)(=O)N2CCc3ccccc3C2)cc1 | >57 | i
CC/C(=N\O)c1ccc(OC)c(OC)c1 | >25.6 | .
Cn1c(=O)c(C(=O)CN2CCCc3ccccc32)c(N)n(Cc2ccccc2)c1=O | >57 | i

By substructure, the entries above containing fluorine (7)
SMILES | PK Bst | YjeE inh
O=C(C1CCCCC1)N1CCC(c2nc3c(nnn3Cc3c(F)cccc3Cl)c(=O)[nH]2)CC1 | >57 | i
O=C(NCC(=O)N(CC1CCCO1)C(C(=O)NC1CCCCC1)c1ccc(F)cc1)c1ccco1 (centres undefined) | >57 | i
CCOC(=O)c1[nH]c2c(c1C)C(=O)CC(c1ccc(F)cc1)C2 (centres undefined) | . | i
Cc1ccc2nc(N3CCN(Cc4ccc(F)cc4)C3=O)c(C)cc2c1 | >57 | i
CCOC(=O)C1C2C=CC3(CN(c4ccc(Cl)c(F)c4)C(=O)C13)O2 (centres undefined) | . | i
Cc1ccc(O)c(NC(=O)C2CC(c3c(F)cccc3Cl)=NO2)c1 (centres undefined) | i | i
O=C(CN1CCC(n2nnc3cc(C(F)(F)F)ccc32)CC1)NCc1cccs1 | >57 | i

Single records (already shown). Screens in order: PK Bst	YjeE inh
`COc1ccc2c(c1)c(C(=O)OCCN(C)C)c(C)n2C` across the screens: >57	i
`Cc1cc2nc(-c3cccnc3SCC(=O)NCc3ccco3)[nH]c2cc1C` across the screens: 3.87*	i

Next compounds.
SMILES | PK Bst | YjeE inh
CCC(c1nnnn1Cc1ccco1)N(Cc1cc2cc(OC)ccc2[nH]c1=O)C1CCCCC1 (centres undefined) | >57 | i
Cc1noc(C)c1S(=O)(=O)Nc1ccc(C(=O)NCCc2ccccc2)cc1 | >57 | i
COC(=O)C1=C(N)Oc2cc(C)n(C)c(=O)c2C1c1ccc(Cl)cc1 (centres undefined) | >57 | i
O=C(COc1cc(=O)n2c(n1)SCCC2)c1ccccc1 | . | i
Cc1ccccc1Cn1cc(NC(=O)c2noc3c2CC(C(C)(C)C)CC3)cn1 (centres undefined) | >57 | i
Cc1ccccc1Cn1nc(C)c(NC(=O)c2noc3c2CCc2ccccc2-3)c1C | . | i
CSc1ccc2nnc(-c3cccc(F)c3)n2n1 | i | i
CCCCOC(=O)CSc1nc(N)c(C#N)c(-c2ccc(OC)cc2)c1C#N | >25.6 | .
CC(C)(CNS(=O)(=O)c1ccc(F)cc1)CNS(=O)(=O)c1ccc(F)cc1 | >57 | i
CC(C)(C)S(=O)(=O)c1ccc2nc3c(n2c1)CCCC3 | >57 | i
N#Cc1nc(COc2ccc(Cl)cc2)oc1N1CCN(Cc2ccccc2)CC1 | >11.4 | .
O=C(c1ccc2c(c1)OCO2)[C@@H]1[C@@H]2C(=O)N(C3CCCCC3)C(=O)[C@@H]2C2c3ccccc3C=CN21 (some centres undefined) | >57 | i
CCNC(=O)CC1SC(=Nc2cccc(Cl)c2C)N(C)C1=O (centres undefined) | >57 | i
N#Cc1c2n(c3c(=O)n(Cc4ccccc4Cl)cnc13)CCCCC2 | >57 | i
CCOC(=O)COc1ccc(S(=O)(=O)Nc2ccc3c(c2)OCCO3)cc1 | >57 | i
COc1ccc(-c2nnc3c4ccccc4c(C)nn23)cc1S(=O)(=O)N1CCN(CCO)CC1 | . | i
COC(=O)c1ccccc1NC(=O)c1cc(-c2cccs2)on1 | >57 | i
O=C(CSc1ccc2nnc(-c3cccc(F)c3)n2n1)NCc1ccco1 | >57 | i
CCOC(=O)C1=C(C)NC(=O)NC1/C=C/c1ccccc1 (centres undefined) | >57 | i
N/C(CC(=O)Nc1cccc(C(F)(F)F)c1)=N/O | . | i

Some of the compounds tested; count on the stated rates, not on these rows.
